TRPML1 agonist = qHTS for Agonists of the Human Mucolipin Transient Receptor Potential 1 (TRPML1); activation, % (concentration not given with the values); TRPML1-expressing cells, Ca2+ dye fluorescence, FDSS; host cell line not named in the record; reference of the full effect not given here; Mucolipin-1 (Homo sapiens), Q9GZU1; 410,000 tested, 0.12% active; in the data active = activation above about 50%; inconclusive = about 30% to 50%; inactive = below about 30%; note: 0% is about no effect; the text of the record puts the active cut at 80%
Target sequence (Q9GZU1 whole entry, looked up): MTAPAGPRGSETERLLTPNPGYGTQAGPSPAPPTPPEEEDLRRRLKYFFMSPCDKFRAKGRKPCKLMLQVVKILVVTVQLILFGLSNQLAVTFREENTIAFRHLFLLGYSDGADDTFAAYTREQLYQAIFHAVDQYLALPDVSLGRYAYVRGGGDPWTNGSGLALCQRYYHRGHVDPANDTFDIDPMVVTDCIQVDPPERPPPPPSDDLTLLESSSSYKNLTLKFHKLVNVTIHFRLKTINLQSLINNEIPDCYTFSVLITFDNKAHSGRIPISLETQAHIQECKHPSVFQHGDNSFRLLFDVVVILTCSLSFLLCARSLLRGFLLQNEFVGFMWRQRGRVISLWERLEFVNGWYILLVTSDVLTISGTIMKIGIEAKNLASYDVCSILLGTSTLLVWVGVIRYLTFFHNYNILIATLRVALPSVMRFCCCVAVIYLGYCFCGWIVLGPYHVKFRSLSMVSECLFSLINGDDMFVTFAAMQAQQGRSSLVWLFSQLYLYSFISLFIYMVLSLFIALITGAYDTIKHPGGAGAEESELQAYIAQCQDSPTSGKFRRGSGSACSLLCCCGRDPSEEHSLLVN
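Tetracycline-induced TRPML1-DL cells are seeded and incubated overnight before loading with a no-wash Ca2+ dye and quencher. Agonist activity is taken from the 110 s fluorescence read following compound pin-transfer on an FDSS, before EC80 54-4 challenge.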
PINK1 expr mod = A Quantitative High throughput Screen to Identify Chemical Modulators of PINK1 Expression | PINK1 immunofluorescence, high-content cytometry, 24 h | Potency, µM (titrated, usually from 76.6 µM), without a hit: at the top dose activation (PINK1 increase), actives largely listed as activators | 410,000 tested, 0.2% active | AID 624263, 2012; active = well fitted activation curve with a large enough effect; inconclusive = small, poorly fitted or top-dose-only effect; inactive = flat fitted curve, though single readings scatter; cell line not stated here;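 note: potency is the fitted concentration of half-maximal effect; % of control where 0% means no effect; nearly all actives have a fitted effect of over 65% in size; a mitochondrial uncoupler was the plate control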
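Stable cell line, 250 cells/well, 12 h attachment; compounds pinned at 5 concentrations, 24 h; CCCP control. Fixed with nuclear dye, primary antibodies 12 h at 10 degrees C, secondary plus cell stain; laser-scanning cytometer read.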
D2 ag = Beta-Arrestin HTS for Positive Allosteric Modulators of the Human D2 Dopamine Receptor: Agonists. DiscoveRx PathHunter D2 beta-arrestin, luminescence, 90 min; 100% = 57 uM dopamine signal. activation, % (concentration not given with the values). 360,000 tested, 0.084% active. AID 624465, 2012; in the data active = activation above about 40%; inconclusive = about 15% to 40%; inactive = below about 15%; note: compound concentration not given in the record; the text of the record calls up to 30% inactive
Target sequence (P14416 whole entry, looked up): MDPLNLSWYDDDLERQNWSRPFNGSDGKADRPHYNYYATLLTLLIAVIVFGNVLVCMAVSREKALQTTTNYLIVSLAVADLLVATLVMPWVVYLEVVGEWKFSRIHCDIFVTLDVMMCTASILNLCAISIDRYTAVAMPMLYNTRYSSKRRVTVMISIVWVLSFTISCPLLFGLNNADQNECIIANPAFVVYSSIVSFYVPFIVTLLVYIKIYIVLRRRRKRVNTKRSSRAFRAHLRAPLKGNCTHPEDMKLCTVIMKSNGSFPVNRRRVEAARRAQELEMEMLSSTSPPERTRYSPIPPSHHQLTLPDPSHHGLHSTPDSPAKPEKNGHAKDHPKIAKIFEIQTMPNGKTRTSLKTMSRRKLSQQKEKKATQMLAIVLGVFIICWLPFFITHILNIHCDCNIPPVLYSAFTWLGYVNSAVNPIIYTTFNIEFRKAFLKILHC
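Agonist mode: compounds alone added to overnight-plated D2 PathHunter cells for 90 min at 37 C, with 57 uM final dopamine (EC100) defining full response. Beta-arrestin recruitment detected by chemiluminescent reagent, read after 1 h at ambient temperature.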
Six1-Eya2 blk = qHTS Assay for Inhibitors of the Six1/Eya2 Interaction. Homeobox protein SIX1 (Homo sapiens) + Protein phosphatase EYA2 (Homo sapiens), …. AlphaScreen GST-Six1/His-Eya2 binding, biochemical; active compounds read low; control for the full effect not named in the record. activity change, % (concentration not given with the values). 360,000 tested, 0.56% active; in the data active = activity change below about -65%; inconclusive = about -30% to -65%; inactive = above about -30%; note: % is set by controls: 0 for no effect and ±100 for the full control effect
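AlphaScreen with GST-Six1 and His-Eya2 (5X mix: 250 nM and 500 nM), glutathione donor and nickel acceptor beads; buffer 50 mM Tris pH 8.0, 300 mM NaCl, 1 mM TCEP; 1 h at 37 C in the dark.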
CtBP-E1A blk = qHTS Assay for Inhibitors of the CtBP/E1A Interaction; AlphaScreen GST-E1A/His-CtBP binding, 1536-well; active compounds read low; control for the full effect not named in the record; activity change, % (no concentration beside the values); 340,000 tested, 0.49% active; AID 651724, 2012; in the data active means activity change below about -65%; inconclusive means about -30% to -65%; inactive means above about -30%; note: % is set by controls: 0 for no effect and ±100 for the full control effect
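Protein mix (5X: 125 nM each GST-E1A, His-CtBP) was incubated with pinned compound 2 h at 37 deg C in dark, in 50 mM Tris pH 8.0 buffer with 300 mM NaCl. Glutathione donor and nickel acceptor beads followed; AlphaScreen signal read after 1 h.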
TRPML1 blocker = qHTS for Inhibitors of the Human Mucolipin Transient Receptor Potential 1 (TRPML1); TRPML1-inducible cells, Ca2+ dye fluorescence, FDSS; active compounds read low; inhibition of EC80 agonist-evoked calcium signal; Mucolipin-1 (Homo sapiens), Q9GZU1; 390,000 tested, 0.02% active; activity change, negative = inhibition, % (test concentration not listed); AID 624415, 2012; in the data active means activity change below about -50%; inconclusive means about -30% to -50%; inactive means above about -30%;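 note: stimulus is agonist 54-4 at its EC80 concentration; % is set by controls: 0 for no effect and ±100 for the full control effect; compound concentration not given in the record; the text of the record puts the active cut at -80%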
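Tet-induced TRPML1-DL cells loaded with Ca8 no-wash calcium dye were read kinetically on FDSS. Compound addition was followed by EC80 agonist 54-4 (4 uM final); inhibition was read over 110 s.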
* marks the source's active call; other numbers are inactive results; ? = inconclusive; · = not tested or not shown; & = joins results of further samples; [ ] = dose if it differs, or a comment.

SMILES	TRPML1 agonist	PINK1 expr mod	D2 ag	Six1-Eya2 blk	CtBP-E1A blk	TRPML1 blocker
CC1CCCCN1C(=O)CCc1nnc(Cc2c[nH]c3ccccc23)o1 (stereo not drawn)	0.3	-0.6%	0.0	4	-2	9
CCOC(=O)C1=CN(Cc2cccc(Br)c2)S(=O)(=O)N(C)C1C (stereo not drawn)	1.8	0.7%	0.9	33	29	42
CCOc1cc(C2c3c(-c4cc(C)ccc4O)n[nH]c3C(=O)N2CCCOC(C)C)ccc1O (stereo not drawn)	3.4	1.0%	·	·	·	4
Cc1cc(C(=O)NCc2ccccc2)c(=O)[nH]c1C	0.4	·	-0.7	-1	6	-11
O=C(NCc1ccc2c(c1)OCO2)c1cc(-c2ccc(Cl)cc2Cl)on1	0.6	4.8%	-1.7	6	8	-17
Cc1ccc(-n2c(SCC(=O)NCCN3C(=O)CSC3=O)nnc2-c2ccccc2)cc1	-0.4	-1.3%	-3.1	5	-2	74
CCOc1ccc(-n2nc(CO)c(C(=O)NCc3cccs3)n2)cc1	0.4	1.5%	·	·	·	-2
CCCCC1(C(=O)OC)NC(c2ccc(O)cc2)C2C(=O)N(c3ccccc3)C(=O)C21 (stereo not drawn)	-0.3	1.3%	-2.0	-3	7	-13
CN(CC(=O)Nc1ccncc1)S(=O)(=O)c1ccc(Cl)cc1	-0.1	3.9%[38.3 µM]	2.8	-1	10	29
O=C(COc1ccc([N+](=O)[O-])cc1)Nc1ccc(N2CCCC2)cc1	-0.1	0.5%	2.0	-1	-15	14
CN1CCN(C(=O)c2ccc(Cl)c(S(=O)(=O)N3CCCCC3)c2)CC1	0.8	6.2%[38.3 µM]	-0.5	5	0	-22
COc1ccc(NC(=O)CSc2nnc(-c3cnccn3)n2C)cc1OC	-0.7	0.3%	-2.7	-1	-6	0
Cc1ccc(-n2c(=O)c3c(cnn3C)n(CC(=O)Nc3c(C)cccc3C)c2=O)cc1	0.0	0.4%	·	·	·	1
Cc1ccc(OCC(=O)N2CCc3ccccc3C2)c(Br)c1	1.3	0.9%	-0.3	5	·	21
CCOc1c2c(nc3ccc(Cl)cc13)CCC2	0.7	-2.3%[38.3 µM]	-4.6	5	11	-5
CCOC(=O)[C@]12CCCC=C1N(Cc1ccc(Cl)cc1Cl)C(=O)[C@H](CC(=O)N1CCN(C(=O)C3CC3)CC1)C2	-0.7	0.7%	·	-5	-1	·
COc1ccc(CNC(=O)COC(=O)c2ccco2)cc1	-0.6	-1.2%	1.2	3	-2	-2
CC(C)NC(=O)c1onc(CSc2cccc(Cl)c2)c1C(=O)O	-0.8	8.1%	-0.2	-3	0	15
CC(=O)c1ccc(OCC(=O)OC(C)C(=O)NC2CCCCC2)cc1 (stereo not drawn)	-0.2	0.0%	0.8	3	·	12
CCc1cc2c(cc3c(=O)n(CC(=O)N4CCN(c5ccccn5)CC4)nc(CC)n32)s1	0.5	·	1.1	2	7	5
COC(=O)c1sc2nc(C)cc(C)c2c1N	-0.5	0.3%	-3.6	5	3	7
O=C(CC1Nc2cccc3cccc(c23)NC1=O)Nc1ccc(F)cc1 (stereo not drawn)	1.2&-0.1	2.4%&4.1%	1.6	2	·	-1&-16
CCOc1ccccc1-n1c(SCC(=O)N(C(C)C)C(C)C)nnc1-c1cccnc1	1.0	0.1%	-1.6	3	-1	16
C[C@@H]1CN([C@@H](C)CO)C(=O)CCCn2nncc2CO[C@@H]1CN(C)C(=O)c1ccc(N2CCN(C)CC2)cc1	-0.3	2.2%	-3.7	7	-8	8
COc1cccc(NC(=O)CSc2nccn(-c3ccc4c(c3)OCCO4)c2=O)c1	0.9	-2.0%	-2.9	-13	-14	5

Reprinted from the part before: 2 entries; new compounds follow.
SMILES	TRPML1 agonist	PINK1 expr mod	D2 ag	Six1-Eya2 blk	CtBP-E1A blk	TRPML1 blocker
C[C@@H]1CN([C@@H](C)CO)C(=O)CCCn2nncc2CO[C@@H]1CN(C)C(=O)c1ccc(N2CCN(C)CC2)cc1	-0.3	2.2%	-3.7	7	-8	8
COc1cccc(NC(=O)CSc2nccn(-c3ccc4c(c3)OCCO4)c2=O)c1	0.9	-2.0%	-2.9	-13	-14	5
COc1ccc(OC(=O)Nc2ccc([N+](=O)[O-])cc2OC)cc1	-0.2	0.1%	1.7	-2	·	-5
C=CCNC(=O)CCNS(=O)(=O)c1ccc(Br)cc1	-0.1	4.3%[38.3 µM]	-2.4	4	4	10
CCCCCCCCN1C(=O)[C@H](CC(=O)NCCCC)C[C@@]2(C(=O)OCC)CCCC=C12	0.0	-1.1%	·	8	-20	·
COc1ccc(CC(=O)Nc2ccc(-c3noc(-c4cc(OC)c(OC)c(OC)c4)n3)cc2)cc1	1.6	12%	3.1	6	4	11
O=C1Nc2ccc(Cl)cc2C(C#CC2CC2)(C(F)(F)F)O1 (stereo not drawn)	1.1	1.1%	-6.5	-1	1	-8
N#Cc1ccc(OCC(=O)Nc2ccc3[nH]c(=O)[nH]c3c2)cc1	1.4	17%	0.1	3	-6	7
CCC(C)n1c(SCC(=O)NC(=O)Nc2ccc3c(c2)OCCO3)nc2ccccc2c1=O (stereo not drawn)	1.1	1.1%[38.3 µM]	1.2	-8	-13	11
COc1ccc(-n2cnnc2)cc1	-1.3	0.4%	-2.6	0	0	-19
COc1ccc(NC(=O)CCCC2CCCCC2)c(OC)c1	1.1	0.3%	-2.5	2	9	-15
Cc1ccc(-c2cc(C(=O)N(Cc3ccccc3)Cc3ccco3)no2)cc1F	0.8	3.6%	·	·	·	33
Cc1nc2ccccc2c(=O)n1/N=C/c1c(O)ccc2ccccc12	0.8	13%	-2.9	-27	?	-17
COc1cc2c(cc1OC)C(C)N(C(=O)c1ccc(C)o1)CC2 (stereo not drawn)	1.2	8.4%	-0.2	-5	3	12
Cc1ccc(NC(C(N)=O)c2c(C)[nH]c(=O)[nH]c2=O)cc1 (stereo not drawn)	-0.5	-1.0%	-2.3	0	2	-1
C[C@@H]1CN([C@H](C)CO)C(=O)CCCn2cc(nn2)CO[C@H]1CN(C)C(=O)c1cc(-c2ccccc2)on1	1.7	2.8%	-1.5	4	5	26
CCOC(=O)N1CCN(c2ccc(C(C)=O)cc2F)CC1C (stereo not drawn)	0.6	14%	-2.2	1	·	2
CN(CCOc1ccccc1Cl)Cc1ccccc1	6.2	11%	2.1	-3	33	35
COc1cc(OC)cc(C(=O)N2CCCC(c3nc(-c4ccc(C)o4)no3)C2)c1 (stereo not drawn)	-0.1	0.2%	-3.3	-6	7	-18
COc1cc(C(F)(F)F)c(C(=O)N(C)c2ccc(Cl)cc2)cn1	-0.3	3.5%	-0.9	4	6	3
O=C(Nc1cccc(S(=O)(=O)N2CCOCC2)c1)c1c2c(nc3ccccc13)CCC2	0.4	2.0%	1.1	-1	2	-22
Cc1ccc(C(=O)COC(=O)c2cnccn2)cc1[N+](=O)[O-]	-0.8	-1.1%	-11	-18	-19	-18
Cc1cc(C)nc(N/C(=N\S(=O)(=O)Cc2ccccc2)Nc2ccc(F)c(Cl)c2)n1	2.1	1.9%	-4.4	-2	·	37
COc1ccc(NC(=O)N(C)C[C@H]2Oc3ccc(NS(=O)(=O)c4cccs4)cc3C(=O)N([C@@H](C)CO)C[C@@H]2C)cc1	-0.6	0.8%	-2.5	-1	7	-1
CC(C)(CNC(=O)c1ccc(-c2cccc(C(F)(F)F)c2)o1)N1CCOCC1	0.0	-0.6%	-6.3	-10	3	2
Cc1cc(C)c2c(=O)cc(C(=O)NCc3ccccc3)oc2c1	-0.3	12%	1.1	-4	11	14
COc1ccc(S(=O)(=O)N2CCOCC2)cc1NC(=O)COC(=O)C1CCC1	-0.4	0.7%	-4.5	-1	16	-4

One compound at a time, from the list above.
Results for CCC(C)n1c(SCC(=O)NC(=O)Nc2ccc3c(c2)OCCO3)nc2ccccc2c1=O (stereo not drawn) : TRPML1 agonist: 1.1; PINK1 expr mod: 1.1%[38.3 µM]; D2 ag: 1.2; Six1-Eya2 blk: -8; CtBP-E1A blk: -13; TRPML1 blocker: 11
Results for Cc1cc(C)nc(N/C(=N\S(=O)(=O)Cc2ccccc2)Nc2ccc(F)c(Cl)c2)n1 : TRPML1 agonist: 2.1; PINK1 expr mod: 1.9%; D2 ag: -4.4; Six1-Eya2 blk: -2; CtBP-E1A blk: ·; TRPML1 blocker: 37
Results for Cc1cc(C)c2c(=O)cc(C(=O)NCc3ccccc3)oc2c1 : TRPML1 agonist: -0.3; PINK1 expr mod: 12%; D2 ag: 1.1; Six1-Eya2 blk: -4; CtBP-E1A blk: 11; TRPML1 blocker: 14

Going on with the list:
SMILES	TRPML1 agonist	PINK1 expr mod	D2 ag	Six1-Eya2 blk	CtBP-E1A blk	TRPML1 blocker
Cc1ccnc(NC2(C(F)(F)F)N=C(c3ccccc3)NC2=O)c1 (stereo not drawn)	0.2	0.7%[38.3 µM]	-2.7	5	3	-3
CC(C)(C)NC(=O)CN(C(=O)CNS(=O)(=O)c1ccc(Cl)cc1)c1ccc2c(c1)OCCO2	-0.9	4.5%	1.6	3	0	-7
Cc1ccc(NC(=O)c2nc[nH]c2C(=O)NC2CCN(C(=O)OC(C)(C)C)CC2)cc1	-0.8	0.4%	-2.2	0	5	13
NC(=O)c1nsc(C(=O)N(c2ccccc2)C(C(=O)NCc2ccc(F)cc2)c2ccc(O)cc2)c1N (stereo not drawn)	0.7	-0.5%	4.3	2	3	2
Cc1ccccc1C(=O)Nc1nnc(S(=O)(=O)N(C)c2ccc(Cl)cc2)s1	0.2	0.2%	·	·	·	15
COC(=O)c1ccc(-c2nc3ccccc3[nH]2)cc1	2.1	2.1%	2.0	2	-3	-11
CCCOc1ccc(CC2CCC(=O)NC2=O)cc1 (stereo not drawn)	0.7	2.1%	-2.0	-4	11	-6
O=C(NC1CC1)c1scc2c1OCCO2	-1.2	0.6%	-3.4	0	1	-4
COc1cc(CNCC2CCCO2)ccc1OCC(N)=O (stereo not drawn)	1.2	0.7%	0.4	4	-3	37
CCC(Sc1nc2ccncc2[nH]1)C(=O)Nc1ccc(C)c(Cl)c1 (stereo not drawn)	0.0	2.6%	-1.1	-6	4	0
Cc1ccc(S(=O)(=O)N2CCN(C(=O)c3ccc(N4CCCC4)c([N+](=O)[O-])c3)CC2)cc1	-0.1	-0.1%	-5.0	2	-4	2

Assay outcomes: PubChem BioAssay, National Center for Advancing Translational Sciences (NCATS)

Compounds as they come; about 1% have a hit in one of these screens.
